Source: PubChem BioAssay
StopGo FLuc – FMDV 2A StopGo reporter, firefly signal | 120,000 tested, 0.23% active | Potency, µM (top dose mostly 57.5 µM), inactives show top-dose signal change, negative = less light | HEK cells with a luciferase reporter of 2A StopGo recoding; active = well fitted falling curve with a large enough effect; inconclusive = small, poorly fitted or top-dose-only effect; inactive = no such curve, though single readings can be large or run the other way; note: nearly all actives have a fitted effect of over 60% in size; overnight with compound
2A Renilla – FMDV 2A StopGo reporter, Renilla signal; HEK cells with a luciferase reporter of 2A StopGo recoding; Potency, µM (series often up to 57.5 µM), for the others: top-dose signal change, negative = less light; 120,000 tested, 0.32% active; AID 1745857; active means well fitted falling curve with a large enough effect; inconclusive means small, poorly fitted or top-dose-only effect; inactive means no such curve, though single readings can be large or run the other way; note: nearly all actives have a fitted effect of over 55% in size; overnight with compound
* hit, by the source's call; ? = inconclusive; & = joins results of further samples; [ ] = another dose, or the depositor's remark. % is set by controls: 0 for no effect and ±100 for the full control effect; potency is the fitted concentration of half-maximal effect. Compounds as they come (roughly 0.53% active in at least one column).

SMILES	StopGo FLuc	2A Renilla
CC(=O)Nc1ccc(NC(=O)COC(=O)c2ccccc2OCc2cccc(Br)c2)cc1	14%	10%
Cc1cc(CN2CCN(c3ccc(F)cc3)CC2)cs1	2%&-12%	-11%&-10%
CS(=O)Cc1cccc(C(=O)NCC2(c3ccccc3)CCCCC2)c1 (stereo not given)	-13%	6%
CC(=O)Nc1ccc(NC(=O)C(C)OC(=O)c2ccc3c(c2)NC(=O)CS3)cc1 (stereo not given)	3%	-10%[1.06 µM]
Cc1ccc(NC(=O)CCCn2nc(C)c3c(C)n(-c4ccccc4)nc3c2=O)cc1Cl	-5%	-6%
CCOC(=O)CNC(=O)NC1CCN(c2nc3ccccc3n(C)c2=O)CC1	15%	-1%
Cc1ccc(Cn2c(SCc3ccc(C(=O)NC4CCCCC4)cc3)nc3ccncc32)cc1	-19%	?
OCCCc1nc2ccccc2n1CCCCOc1ccccc1	7%	-10%
CCCCC(=O)n1nc(-c2ccc(Cl)cc2)nc1N	0%	-7%
Cc1ccc(Br)c(SCC(=O)O)c1	5%	3%
CNC1(c2nnnn2-c2ccccc2C)CCCC1	0%	-1%
CC(C)(C)NC(NC(=O)c1ccc(C(C)(C)C)cc1)C(Cl)(Cl)Cl (stereo not given)	17%	13%
Cn1nc(CC(=O)N2CCC(C(=O)N3CCCCCC3)CC2)c2ccccc2c1=O	17%	3%
COc1ccc(OC)c(NC(=O)c2cc(=O)c3c(C)cc(C)cc3o2)c1	-10%	-7%
COc1cc(/C=N/O)cc(OC)c1OC	0%	15%
CCC(C(=O)NCc1ccc(C(=O)OC)cc1)c1ccccc1 (stereo not given)	18%	21%
CCOc1cc(/C=C/c2ccc3ccccc3n2)ccc1O	193%[activator]	21%
O=C(Nc1ccnn1Cc1ccccn1)c1cccc(S(=O)(=O)N2CCCC2)c1	10%	30%
N#Cc1ccc(OCCCOc2ccc(C#N)cc2)cc1	-3%	11%
CSc1nc(Nc2ccc(F)cc2)cc(-c2ccccc2)n1	16%	-5%
Cc1ccc(NC(=O)C2CCCN2S(=O)(=O)c2cccc3cccnc23)cc1 (stereo not given)	-4%	0%
c1ccc(N2CCN(Cc3cccn3-c3nnc(N4CCN(C5CCCCC5)CC4)s3)CC2)cc1	-28%	-16%
CCOc1ccc(-n2nc3cc(C)c(NC(=O)c4ccc(Br)o4)cc3n2)cc1	93%[activator]	1%
O=C(Nc1ccc(Br)cc1F)c1ccc2nc(N3CCOCC3)sc2c1	32%[activator]	7%
COc1ccc(OC)c(NC2c3ccccc3C(=O)N2Cc2ccccc2Cl)c1 (stereo not given)	-8%	131%[activator]
N#Cc1nc(-c2ccccc2)oc1N1CCC(C(N)=O)CC1	0%	0%
O=C(NCc1cnn(-c2ccccc2)c1)C1CCN(S(=O)(=O)c2ccccc2)CC1	4%	-3%
CC(C)CC(=O)Nc1nnc2n1CCS2	-6%	3%
CCc1ccc(NC(=O)C(=O)NCCc2sc3nc(-c4ccc(OC)cc4)nn3c2C)cc1	1%	6%
CCOC(=O)c1ccc(NC(=O)CCn2nc(C)c(S(=O)(=O)N3CCCCC3)c2C)cc1	-12%	-4%
Cn1nc(C(=O)N2CCN(c3ccc(O)cc3)CC2)c2ccccc2c1=O	21%	35%[activator]
COc1ccc(NC(=O)Cn2nc3c(cc2=O)CCCC3)cc1Cl	11%	-12%
COc1ccc(CCNC(=O)c2ccc(Cn3c(=O)c4cccn4c4cccnc43)cc2)cc1OC	-10%	-7%
CCOc1ccc(NC(=O)c2cc(C)nc3ccccc23)cc1OC	1%	4%
O=S(=O)(c1ccc(F)cc1)N(Cc1nc(-c2ccc(Cl)cc2)no1)C1CCCCC1	-15%	3%
Cc1cc(SCC(=O)NC2CCS(=O)(=O)C2)nc2ccccc12 (stereo not given)	-5%	-12%
COC(=O)/C=C(C(=O)OC)/C(=C\C(=O)OC)C(=O)OC	-3%	-5%
CCCn1c(CN2CCCCC2)nc2cc(NC(=O)c3cc(OC)c(OC)c(OC)c3)ccc21	-2%	0%
Cc1ccc(Cl)cc1N1CCN(C(=O)c2cnn(C)c2C2CCN(C(=O)OC(C)(C)C)CC2)CC1	-16%	-9%
O=C(CSc1nnc(C2CC2)n1Cc1ccccc1)c1ccccc1	39%[activator]	24%
Cc1ccc(NS(=O)(=O)c2ccc(-c3cc(C)no3)cc2)c(C)c1	?	1%
CCOc1ccc(CCNC(=O)CCCc2nnc3n(CC)c(=O)c4sccc4n23)cc1	-7%	-10%
CCc1nnc2c(Nc3cccc(F)c3)nc3ccc(C(=O)c4ccccc4)cc3n12	-12%	-10%
Cc1ccc(Nc2nc(-c3c[nH]c(C(=O)N4CCCC4)c3)cs2)cc1F	101%[activator]	60%[activator]
CC(=O)NNc1ncnc2c1cnn2-c1ccccc1	18%	-11%
CCOc1ccc(NC(=O)N(C(C)C)C2CCN(C(C)=O)CC2)cc1	-16%	-13%
COc1ccc(OC)c2c1CC(C)(C)n1c(-c3ccccc3)nnc1-2	-2%	-4%
Cc1ccc(SC(=O)c2ccccc2)cc1	6%	-21%
Cc1nc(-c2ccncc2)[nH]c(=O)c1CC(=O)N(C)C(C)CC(C)C (stereo not given)	0%	-15%
CCCn1c(=O)n(CC(=O)Nc2ccc(Oc3ccccc3)cc2)c(=O)c2c1nc(C)n2CCOC	6%	0%
CC(C)CC(NC(=O)c1cccc(OCc2ccc(F)cc2)c1)C(=O)O (stereo not given)	32%[activator]	3%
Cc1cc(C)nc(NNC(=O)CNC(=O)c2ccccc2)n1	1%	-4%
Nc1nc(F)nc2c1ncn2[C@@H]1O[C@H](CO)[C@@H](O)[C@@H]1O	?	14µM*
O=S(=O)(Nc1nc2ccccc2nc1N1CCCC1)c1ccc(F)cc1	-5%	32%[activator]
CCN(CC)CCNC(=O)CCn1ccc2cc(S(=O)(=O)N3CCCCC3)ccc21	-10%	40%[activator]
COc1ccc(Cc2cnc(N)nc2N)cc1OC	-26%	-17%
COc1cccc(NC(=O)N2CCN(Cc3nc(-c4ccc(C)cc4)oc3C)CC2)c1	13%	-25%
O=C(CCc1ncc(-c2ccccc2F)o1)NCc1ccccc1	0%	24%
CC(C)CCSc1ccccc1C(=O)O	19%	7%
O=C(Nc1cccc(-c2nc3c(s2)CCCC3)c1)C1CC1	79%[activator]	0%

Part of the list above, in markdown:
| Compound | StopGo FLuc | 2A Renilla |
| --- | --- | --- |
| COc1ccc(Cc2cnc(N)nc2N)cc1OC | -26% | -17% |
| COc1cccc(NC(=O)N2CCN(Cc3nc(-c4ccc(C)cc4)oc3C)CC2)c1 | 13% | -25% |
| O=C(CCc1ncc(-c2ccccc2F)o1)NCc1ccccc1 | 0% | 24% |
| CC(C)CCSc1ccccc1C(=O)O | 19% | 7% |
| O=C(Nc1cccc(-c2nc3c(s2)CCCC3)c1)C1CC1 | 79%[activator] | 0% |

Going on with the list.
SMILES	StopGo FLuc	2A Renilla
Cc1ccc(NCC(=O)N2CCN(S(=O)(=O)c3ccc4ccccc4c3)CC2)c(F)c1	1%	-10%
CCOC(=O)C1=C(C)OC(N)=C(C(=O)OC)C12C(=O)Nc1cc(Br)ccc12 (stereo not given)	-12%	-8%
Cc1nc2cc(NC(=O)c3cccc(C)c3C)ccc2o1	205%[activator]	13%
CCCCOC(=O)c1ccc(Nc2nc3ccccc3c3nnc(C)n23)cc1	-20%	-17%
Cn1nc(C(=O)Nc2cccc(C(F)(F)F)c2)c2c1-c1ccccc1OC2	0%	-16%
Cc1ccc(-c2cc(C(=O)NCCc3ccccc3)c3ccccc3n2)cc1	0%	8%
COc1cc(C(C)=O)ccc1OCc1ccccc1C#N	0%	3%
Nc1ncnc(Nc2ccc(F)c(Cl)c2)c1[N+](=O)[O-]	7%	-2%
CC(C)COc1ccc(C(=O)Nc2nnc(S(=O)(=O)N(C)Cc3ccco3)s2)cc1	84%[activator]	-7%
COC(=O)c1cc(-c2ccc(Cl)cc2)nc2onc(C)c12	-8%	7%
CCc1ccc(/C=C/C(=O)c2cc3cccc(OC)c3oc2=O)cc1	?	12%
COCc1cc(C)nc2sc(C(=O)Nc3ccccc3O)c(N)c12	84%[activator]	-2%
Oc1ccc(Br)cc1C=Nc1ccccc1C(F)(F)F	-8%	0%
CC[C@@]1(O)C(=O)OCc2c1cc1n(c2=O)Cc2c-1nc1ccccc1c2/C=N/OC(C)(C)C	-53%	?
COc1ccc(S(=O)(=O)N(CC(=O)NC2CCCCCC2)c2ccc(C)cc2)cc1OC	36%	55%[activator]
COc1ccc2cc(C(=O)N3CCC(C(=O)N4CCCC4)CC3)[nH]c2c1	0%	0%
Cc1cccc(Nc2nc(-c3cc4cc(Br)ccc4oc3=O)cs2)c1	-1%	-7%
CCCCn1c(=O)c2oc3ccccc3c2n(CC(=O)Nc2ccc(CC)cc2)c1=O	-5%	4%
COc1cccc(CNC(=O)C(C)n2c(=O)cc(-c3ccccc3)c3c(C)nn(C)c32)c1 (stereo not given)	2%	-2%
Cc1nn(-c2ccccc2)c2c1C(C(F)(F)F)(C(F)(F)F)N=C(N(C)C)O2	-6%	-6%
CCOc1ccc(OCC)c(NC(=O)c2cc(-c3cccs3)nc3ccccc23)c1	-19%	-15%
COc1ccc(C)cc1NC(=O)CN1C(=O)CSc2ccc(S(=O)(=O)N3CCCC3)cc21	?	75%[activator]
COc1ccc(OC)c(C2C3=C(CC(C)(C)CC3=O)OC3=C2C(=O)CC(C)(C)C3)c1	3%	11%
CCCNC(=O)CCn1nc(-c2ccc(C)cc2)c2ccccc2c1=O	-13%	53%[activator]
C=CCN(CC#CC(=C)C)Cc1ccc(OC)cc1OC	-5%	-7%
Cc1cccc(NC(=O)Cn2nnc(C(=O)Nc3ccccc3Br)c2N)c1C	15%	3%
CC(=O)N1CCCc2cc(S(=O)(=O)N3CCC(C(=O)NCc4ccccc4Cl)CC3)ccc21	17%	37%[activator]
Cc1cc(C(=O)O)ccc1-n1cccc1	-1%	0%
Cc1c(C(=O)N2CCC(c3nc4ccccc4o3)CC2)oc2cc(Br)ccc12	0%	10%
CC(=O)N1CCN(C(=O)CCc2nc(Cc3ccccc3)no2)CC1	-12%	-9%
Cc1nc2cc(NC(=O)COc3cc(C(C)C)ccc3C)ccc2o1	28%	11%
CCN(CCO)CCCC(C)Nc1ccnc2cc(Cl)ccc12 (stereo not given)	-25%[5.23 µM]	-19%[5.77 µM]
CCN(CC)S(=O)(=O)c1ccc(NC(=O)c2c(C)oc3ncnc(N4CCOCC4)c23)cc1	-23%	-3%
CCOC(=O)C(CC)Sc1ccc2nnc(CCNS(=O)(=O)c3ccc(C)cc3)n2n1 (stereo not given)	-25%	-13%
CC(C)NC(=O)CN(C)C(=O)c1cn(Cc2ccccc2)c2ccccc12	-2%	14%
Cc1cccc(N2NC3(CCCCC3)NC2=S)c1C	-6%	12%[1.06 µM]
Cc1ccc(C)c(S(=O)(=O)N2CCCC2c2nc3ccccc3[nH]2)c1 (stereo not given)	-5%	18%
Cc1ccc(SCC(=O)Nc2ccc3oc(-c4cccc(C)c4)nc3c2)cc1	134%[activator]	16%
Cc1cc(C)c(NC(=O)Cn2c(=O)nc(-c3ccccc3)c3cc(Cl)ccc32)c(C)c1	7%	-8%
COc1ccc2cc(S(=O)(=O)c3ccc(Cl)c(Cl)c3)c(=O)oc2c1	-7%	-10%
CCOc1ccc2nc(NC(=O)c3cccn(Cc4ccc(Cl)cc4)c3=O)sc2c1	24%	2%
CCCCC(=O)NC(NC(=O)CCCC)c1ccc(Cl)cc1	4%	22%
CC(C)c1ccc(C(C)NC(=O)CCCNC(=O)C(C)(C)C)cc1 (stereo not given)	-8%	-3%
Cc1ccccc1OCC(=O)N1CCN(Cc2nc(N)c3ccccc3n2)CC1	2%	-5%
N#Cc1ccccc1CN1CCSc2ccccc21	37%[activator]	9%

Already shown: an excerpt of the list.
SMILES	StopGo FLuc	2A Renilla
Cc1nc2cc(NC(=O)COc3cc(C(C)C)ccc3C)ccc2o1	28%	11%
CCN(CCO)CCCC(C)Nc1ccnc2cc(Cl)ccc12 (stereo not given)	-25%[5.23 µM]	-19%[5.77 µM]
CCN(CC)S(=O)(=O)c1ccc(NC(=O)c2c(C)oc3ncnc(N4CCOCC4)c23)cc1	-23%	-3%
CCOC(=O)C(CC)Sc1ccc2nnc(CCNS(=O)(=O)c3ccc(C)cc3)n2n1 (stereo not given)	-25%	-13%
CC(C)NC(=O)CN(C)C(=O)c1cn(Cc2ccccc2)c2ccccc12	-2%	14%
Cc1cccc(N2NC3(CCCCC3)NC2=S)c1C	-6%	12%[1.06 µM]

The list goes on.
SMILES	StopGo FLuc	2A Renilla
COc1ccc(NC(=O)CN(c2ccc(C)cc2)S(=O)(=O)c2cccs2)cc1OC	-6%	-2%
CCOc1ccc(NC(=O)CN2C(=O)C(c3ccc(Cl)cc3)=NC2(C)C)cc1	-9%	2%
CCN(CC)CCN1Cc2c(sc(C)c2C)N(C(=O)c2ccc(OC)cc2)C1	163%[activator]	0%
O=C(NC1Cc2ccccc2C1)C1CC1	0%	-1%
Cn1ccc(NC(=O)CCc2ncc(-c3ccccc3)o2)n1	-1%	-6%
COc1ccc(C(C(=O)NCc2ccccc2)N(C(=O)Cn2nnc3ccccc32)c2ccc(OC)cc2)cc1 (stereo not given)	-3%	9%
O=C(c1cc(-c2ccc(Br)cc2)n[nH]1)N1CCN(S(=O)(=O)c2ccc(Cl)s2)CC1	0%	-4%
O=C(NC1CCCc2ccccc21)c1ccsc1 (stereo not given)	9%	21%
NC(=O)CN1CCN(c2nc3ccccc3nc2NS(=O)(=O)c2cccc(Cl)c2)CC1	0%	45%[activator]
O=C(Nc1ccc(F)cc1F)C1CCN(C(=O)c2cnn(-c3ccccc3)c2-n2cccc2)CC1	-8%	12%
CCOC(=O)/C=c1/s/c(=C/c2ccc(Cl)cc2)c(=O)n1Cc1ccc(C(=O)OC)cc1	17%	3%
